AID923: qHTS Assay for Allosteric/Competitive Inhibitors of Caspase-1: Spectroscopic Profiling in AFC Spectral Region. 75,000 tested, 1.1% active. compound fluorescence, AFC spectral region (405/520 nm); almost no hit is shown here. Potency, µM (titrated, usually from 57.5 µM), for the others: at the top dose fluorescence increase, hits mostly activators. AID 923, 2007; active = well fitted activation curve with a large enough effect; inconclusive = small, poorly fitted or top-dose-only effect;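 note: potency is the fitted concentration of half-maximal effect; 0% is about no effect; scaled to a free AFC standard on each plate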
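Compound autofluorescence profiled at 405 nm ex/520 nm em during kinetic caspase 1 run (50 nM enzyme, 5 uM Ac-WEHD-AFC, HEPES pH 7.5, 10 mM DTT). Titration up to 57 uM; baseline from regression intercept, normalized to AFC standard curve.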
A488 fluor: A488 region autofluorescence; 59,000 tested, 0.1% active; compound autofluorescence, A488 spectral region, dye equivalency; stronger effect = higher value; max dye equivalency, M; active = above 10 nM dye equivalent; inconclusive = 1 to 10 nM; inactive = 1 nM or less; about half of its hits are not listed in these tables;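 note: highest value over a series up to 38 µM; compound alone in buffer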
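Readout is A488 dye-equivalent concentration, calibrated by a per-plate six-point Alexa 488 series. Compounds in 100 mM Tris buffer pH 8.0 were incubated 15 min at room temperature. Plates were imaged using 480 nm excitation/540 nm emission filters.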
A647 fluor: compound autofluorescence in A647 spectral region; 59,000 tested, under 10 active; max dye-equivalent concentration, M; AID 592; Compound fluorescence, A647 channel (570/671 nm), Tris buffer; active means above 1 µM dye equivalent; inconclusive means 0.1 to 1 µM; inactive means 0.1 µM or less;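 note: values scaled relative to a standard on each plate; highest value over a series up to 38 µM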
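Spectral profiling of library compounds in pH 8.0 Tris: 15 min room-temperature incubation, single ex/em pair (570/671 nm), response normalized to Alexa 647 equivalents.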
TSHR agonist: activates the human thyroid stimulating hormone receptor; P16473; 73,000 tested, 0.48% active; Potency, µM (series often up to 57.1 µM), without a hit: top-dose activation, hits mostly activators; HEK293-CNG-TSHR cells (CNG channel as cAMP sensor), membrane potential dye, cAMP; AID 926; active = well fitted activation curve of enough size with the parental cells flat; inconclusive = any curve in the parental cells; inactive = parental cells flat and receptor cells flat or falling; note: potency is the fitted concentration of half-maximal effect; % of control where 0% means no effect; weak receptor curves with flat parental cells got no call and are not listed
Target sequence (P16473 whole entry, looked up): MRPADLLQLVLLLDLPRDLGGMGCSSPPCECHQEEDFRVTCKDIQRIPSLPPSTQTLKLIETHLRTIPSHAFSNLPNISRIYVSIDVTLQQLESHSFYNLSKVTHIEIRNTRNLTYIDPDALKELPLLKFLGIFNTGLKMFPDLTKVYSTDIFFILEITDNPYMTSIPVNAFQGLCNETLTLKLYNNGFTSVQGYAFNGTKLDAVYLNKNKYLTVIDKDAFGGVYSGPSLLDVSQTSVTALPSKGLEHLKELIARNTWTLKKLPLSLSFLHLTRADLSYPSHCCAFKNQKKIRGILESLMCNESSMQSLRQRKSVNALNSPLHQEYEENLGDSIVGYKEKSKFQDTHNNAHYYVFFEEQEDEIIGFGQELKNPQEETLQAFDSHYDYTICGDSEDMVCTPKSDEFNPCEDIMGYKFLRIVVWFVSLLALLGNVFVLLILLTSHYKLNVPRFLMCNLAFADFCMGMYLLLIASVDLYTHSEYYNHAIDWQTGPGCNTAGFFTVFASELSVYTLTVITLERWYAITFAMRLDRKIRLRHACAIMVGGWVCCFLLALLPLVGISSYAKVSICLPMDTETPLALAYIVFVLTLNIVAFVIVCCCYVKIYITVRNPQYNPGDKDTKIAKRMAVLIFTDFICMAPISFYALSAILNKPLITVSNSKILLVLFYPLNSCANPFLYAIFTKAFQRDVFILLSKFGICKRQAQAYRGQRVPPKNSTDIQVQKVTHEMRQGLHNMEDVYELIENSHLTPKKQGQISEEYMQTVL
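cAMP rise detected as CNG-channel membrane depolarization by fluorescent dye (emission 590 nm), 30 min after compound, following 60 min dye loading containing 100 uM RO 20-1724 at room temperature. Cells: TSHR/CNG HEK 293, with parental CNG HEK 293 as control.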
Resorufin fluor: compound fluoresces in the resorufin spectral region; 59,000 tested, 0.04% active; max dye-equivalent concentration, M; Compound fluorescence, resorufin region 547/598 nm, buffer; stronger effect = higher value; active = above 10 nM dye equivalent; inconclusive = 1 to 10 nM; inactive = 1 nM or less; a few of its hits are not listed in these tables; note: highest value over a series up to 38 µM
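Compounds in 100 mM Tris buffer, pH 8.0, incubated 15 min at room temperature, then read with 547 nm excitation and 598 nm emission filters. Fluorescence was converted to dye-equivalent concentration using an on-plate six-point resorufin standard curve.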
The depositor's hits bear a star; i = inactive; ? = inconclusive; . = not tested or not shown; & = joins results of further samples; [ ] = another dose, or the depositor's remark.

SMILES	AID923	A488 fluor	A647 fluor	TSHR agonist	Resorufin fluor
c1ccc(CCn2nnnc2C(c2cccs2)N2CCN(Cc3ccc4c(c3)OCO4)CC2)cc1 (configuration not stated)	-0.3%	i	7.4e-09	?	i
Cc1ccnc(N2CCC(C(=O)Nc3ccc4c(c3)OCO4)CC2)n1	0.0%	i	1e-09	-0.4%[11.4 µM]	i
N#Cc1ccc2ccn(CC(=O)NC3CCCCC3)c2c1	0.3%	i	2.2e-09	?	i
N#CC(C(=O)O)=C1CCCC1	-0.5%	i	2.24e-08	4.5%	i
COc1ccc(C(=O)n2cnc(N)n2)cc1	-1.5%	i	1e-09	0.1%	i
CCn1c(SCc2nc3ccccc3[nH]2)nnc1-c1ccccc1OC	-1.3%	i	2.6e-09	-0.2%	i
O=C1C(=O)N(CCN2CCOCC2)C(c2ccccn2)/C1=C(/O)c1ccc(F)cc1 (configuration not stated)	.	i	2.25e-08	.	i
N#Cc1c(NC(=O)COC(=O)C2CC3C=CC2C3)oc(-c2ccccc2)c1-c1ccccc1 (configuration not stated)	-1.9%	i	3.03e-08	?	i
Nc1cc(C(=O)O)ccc1N1CCCCCC1	-4.2%	i	4.64e-08	1.5%	i
CCOC(=O)C1CCN(C(=O)COC(=O)CCOc2ccc(C)cc2)CC1	3.4%	i	1.45e-08	?	i
O=C(c1n[nH]c(=O)c2ccccc12)N1CCN(c2ccc(F)cc2)CC1	-1.4%	i	4.5e-09	?	i
O=C(CSc1nnc(-c2ccccc2)n1-c1ccccc1)NCc1ccco1	-1.0%	.	.	17.8%	.
OCCn1c(-c2ccc3c(c2)OCO3)csc1=Nc1ccccc1	0.8%	i	1.72e-08	25.3%	i
Brc1ccc2nc(CSc3ncn[nH]3)cn2c1	-1.2%	i	1e-09	-0.7%	i
COc1ccc(-c2cc3nc(C)c(CCC(=O)N4CCCCC4)c(C)n3n2)c(OC)c1	-1.6%	i	3.6e-08	-2.6%[11.4 µM]	i
CC(C)COC(=O)N1CCCC1C(=O)Nc1nccs1 (configuration not stated)	1.6%	i	2.59e-08	-19.6%	i
FC(F)(F)C(F)(F)C(F)(F)c1nnc2ccc(N3CCOCC3)nn12	-0.2%	i	5e-09	-3.4%	i
O=C(Nc1ccc2c(c1)OCO2)c1cc(C2CC2)on1	0.3%	.	.	8.5%	.
Cc1ccc(-c2cc(C(F)F)nc(NCc3cccnc3)n2)cc1	1.9%	i	4.8e-09	.	i
COc1ccccc1NC(=O)CN1C(=O)CCS(=O)(=O)c2ccccc21	0.0%	i	1e-09	-1.3%	i
C[C@H](CN(C)C)C(O)(c1ccccc1)c1ccccc1	0.7%[11.5 µM]	i	1e-09	3.0%[11.4 µM]	i
CC1=CC(c2ccccc2)n2nc(N3C(=O)C4CC=CCC4C3=O)nc2N1 (configuration not stated)	.	i	1e-09	.	i
COc1ccc(C2N3CC4(C)CN2CC(C)(C3)C4=O)cc1OC (configuration not stated)	0.1%	.	.	0.5%	.
O=C(C1CCCO1)N1CCC(O)(c2ccccc2)CC1 (configuration not stated)	0.3%	i	3.2e-09	7.7%	i
O=S1(=O)N=C(Nc2ccc(O)c(CN3CCCCC3)c2)c2ccccc21	1.2%	.	.	-6.7%	.
COc1ccc(-c2noc(CSc3nc(N)c(-c4ccccc4)c(=O)[nH]3)n2)cc1OC	0.3%	i	1e-09	19.0%	i
O=C(CSc1nc(-c2ccco2)cc(C(F)(F)F)n1)NCCCn1ccnc1	-1.8%	.	.	-2.5%	.
CC1(C)NC(=O)N(CC(O)CN2CCCCC2)C1=O (configuration not stated)	-0.1%	i	4.04e-08	6.9%[11.4 µM]	i
COC(=O)C1=C(C)N(Cc2ccccc2)[C@]23O[C@](C(=O)OC)(C(=O)N2C1c1ccccc1)C(c1ccccc1)C3C(=O)c1ccccc1 (some centres not stated)	0.1%&3.7%[11.5 µM]	.	.	4.2%&3.2%[11.4 µM]	.
CC(C)Oc1ccc(NC(N)=O)cc1	-0.9%	i	8.2e-09	16.5%	i
Cc1sc2ncn3c(C)nnc3c2c1C	-0.3%	i	2.3e-08	-0.7%	i
Nn1c(SC/C=C/c2ccccc2)nnc1-c1cccnc1	3.7%	i	1e-09	20.9%	i
Cc1noc(C(=O)Nc2ccc3c(c2)OCO3)c1Cl	1.1%	.	.	-3.1%	.
CCC[C@@H]1C[C@@]1(CCC)C(NS(=O)(=O)c1cccc2cccnc12)c1ccc(Cl)cc1 (some centres not stated)	-0.4%	.	.	?	.
O=C(O)Cn1c(P(=O)(O)c2ccccc2)nc2ccccc21	2.4%	i	1e-09	0.9%	i
Clc1ccc2[nH]c3c(NCCCN4CCOCC4)ncnc3c2c1	.	i	1.82e-08	.	i
COC(=O)C1=C(N)Oc2cc(C)n(Cc3ccncc3)c(=O)c2C1c1cccnc1 (configuration not stated)	-1.2%	i	1.4e-09	4.4%	i
O=S(=O)(Cc1ccccc1)Nn1cnnc1	2.0%	.	.	-4.7%	.
S=c1[nH]nc(-c2ccco2)n1C1CCCCC1	.	i	3.76e-08	.	i
OC1CN=C2Sc3ccccc3N2C1 (configuration not stated)	.	i	1.2e-09	.	i
CCc1ccc(NC(=O)c2cccnc2)cc1	0.1%	i	7.1e-09	-4.2%	i
COC(=O)c1cccc(NC(=O)c2nn(C)c(=O)c3ccccc23)c1	-0.1%	i	5.5e-09	?	i
O=S(=O)(/N=C/N1CCOCC1)c1ccc(Cl)cc1	-0.5%	i	7.2e-09	1.1%	i
COc1ccc(Cl)cc1NC(=O)Cn1cccc1	1.4%	i	3.73e-08	5.6%[11.4 µM]	i
c1ccc(CSc2ncccn2)cc1	-0.5%	i	3.4e-09	5.8%	i
Nc1cc(Cl)ccc1Oc1ccccc1	0.2%	i	4e-09	15.1%	i
CC1=CC(=O)C2=C(C)CC[C@@H]3[C@H](OC(=O)[C@H]3C)[C@H]12	.	i	1.64e-08	3.2%	i
COc1ccc(OC)c(-c2cc(C(=O)Nc3c(C)nn(Cc4ccccc4C)c3C)no2)c1	-2.2%	i	3.2e-09	4.5%	i
O=P(O)(O)CCP(=O)(c1ccccc1)c1ccccc1	-0.7%	i	1.67e-08	8.9%	i
CCOC(=O)c1ccc(N2Cc3cc(C)c(C)cc3C2)cc1O	0.9%	.	.	4.9%	.
O=C1c2ccccc2C(O)(Cc2ccccc2)N1Cc1ccco1 (configuration not stated)	-0.3%	i	3.95e-08	.	i
CCOC(=O)c1ccc2c(c1)nc(SCc1cn3ccsc3n1)n2CC	-2.5%	i	1.81e-08	13.7%	i
COCC(=O)N1CCC2(CCCN(c3ccncc3)C2)CC1	0.5%	i	1.3e-09	7.4%	i
COCCNC(=O)CSCc1nc(-c2ccc(SC)cc2)oc1C	-1.0%	i	1.09e-08	-5.5%[11.4 µM]	i
Cc1cc(NC(=O)c2ccc3c(c2)C(=O)N(C2CCCCC2)C3=O)no1	1.7%	.	.	-6.7%	.
Cc1nc(Nc2ccccc2)c2nc(-c3ccccc3)n(CCN3CCOCC3)c2n1	-2.7%	.	.	9.3%	.
Cc1ccccc1NC(=O)C1CCCN(S(=O)(=O)c2cnc[nH]2)C1 (configuration not stated)	2.3%	.	.	1.3%	.
CNc1nc(OC)nc(N2CCOCC2)n1	1.5%	i	2.5e-08	-1.0%	i
COc1ccc(NC(=O)N2CC[C@@]3(CCCN(C(=O)c4cccn4C)C3)C2)cc1	0.7%	i	2.31e-08	0.9%	i
O=C(CSc1nc(-c2ccccc2)cc(=O)[nH]1)N1CCOCC1	-0.7%	i	1e-09	-3.2%	i

(more compounds)
SMILES	AID923	A488 fluor	A647 fluor	TSHR agonist	Resorufin fluor
Cn1c(SCC(=O)N2CCCCC2)nnc1-c1ccc(S(=O)(=O)N2CCOCC2)cc1	0.0%	i	1e-09	-1.5%	i
Cc1ccc(S(=O)(=O)CCC(=O)OCC(=O)Nc2cc(C)on2)cc1	-1.6%	i	1.3e-08	-4.1%	i
CCn1nccc1C(=O)Nc1cc(Cl)ccc1Cl	-3.5%	i	1.2e-08	3.6%	i
CC(=O)c1cc(-c2ccccc2)n(CC(=O)N2CCC(N3CCCCC3)CC2)c1C	0.3%	i	4.8e-09	?	i
CCCCC[C@H](O)CCCC(=O)O	-2.7%	i	4.94e-08	7.5%	i
Cc1cccc(-n2c(N)cc(=O)[nH]c2=S)c1C	-1.0%	i	1e-09	-8.0%	i
O=C(c1cc(C2CC2)on1)N1CCN(C(c2ccccc2)c2ccccc2)CC1	-2.7%	.	.	0.5%	.
CCCCN(CC)S(=O)(=O)c1cccc2cccnc12	-0.1%	.	.	?	.
O=C1c2ccccc2N2C(=O)c3ccccc3C2N1Cc1ccco1 (configuration not stated)	1.1%	.	.	?	.
CC(C)N(C(=O)CSc1nnc(-c2cc3ccccc3cc2O)n1Cc1ccco1)C(C)C	-0.2%	i	1.57e-08	?	i
COC(=O)c1ccc(Nc2cc(C)nc3nc(C)nn23)cc1	-0.3%	.	.	12.4%	.
COC(=O)Nc1c(C(=O)OC)cc(OC)c(OC)c1OC	1.9%	.	.	3.2%	.
COC(=O)CSc1nc(NC(C)C)nc(N2CCOCC2)n1	-2.9%	i	1.78e-08	5.8%	i
COc1ccc(C(=O)COC(=O)CN2C(=O)NC(C)(C)C2=O)cc1OC	-0.5%	i	1e-09	-0.3%	i
O=C(CN1CCC(NC(=O)c2ccc(F)cc2)CC1)NCc1ccccc1F	-1.5%	i	1.68e-08	-5.3%	i

The final two entries of the section before are carried over, then new ones follow:
SMILES	AID923	A488 fluor	A647 fluor	TSHR agonist	Resorufin fluor
COc1ccc(C(=O)COC(=O)CN2C(=O)NC(C)(C)C2=O)cc1OC	-0.5%	i	1e-09	-0.3%	i
O=C(CN1CCC(NC(=O)c2ccc(F)cc2)CC1)NCc1ccccc1F	-1.5%	i	1.68e-08	-5.3%	i
Cc1cc(C)c(C(=O)CC2(O)C(=O)Nc3ccccc32)cc1C (configuration not stated)	1.6%	i	6.3e-09	4.6%	i
CC1CCCCN1C(=O)CSc1nc2ccsc2c(=O)n1Cc1ccccn1 (configuration not stated)	-0.8%	i	1.16e-08	21.1%	i
c1ccc(-c2cnc(-c3ccc(-c4ncc(-c5ccccc5)o4)cc3)o2)cc1	17.4%[11.5 µM]	i	1e-09	?	i
CCCc1cc2c(cc1NS(=O)(=O)c1ccc(CCNC(C)=O)cc1)OCO2	0.3%	i	2.2e-09	-0.7%[11.4 µM]	i
C[C@]12C=CC(=O)C=C1CC[C@@H]1[C@H]3C[C@@H](O)[C@](O)(C(=O)CO)[C@@]3(C)C[C@H](O)[C@]12F	-1.3%[25.7 µM]	i	4.66e-08	-10.3%[25.6 µM]	i
Cc1cc(O)c2c(-c3ccccc3)cc(=O)oc2c1	-0.1%	i	1.86e-08	?	i
COC(=O)CC1C(=O)NCCN1C(=O)NC1CCCCC1 (configuration not stated)	2.8%	i	1e-09	-1.5%	i
NC1=NC(=O)CC(C(=O)NCCc2ccccc2)S1 (configuration not stated)	-2.4%	i	1.89e-08	-8.7%	i
Cc1cc(NCCCN)nc(-c2ccccc2O)n1	1.1%	i	3.83e-08	-13.1%	i
COc1cccc(C(=O)Nc2c3c(nn2-c2ccccc2C)CS(=O)C3)c1OC (configuration not stated)	1.2%	i	2.15e-08	0.7%	i
CC(C)(C)OC(=O)N1Cc2ccccc2C[C@H]1C(=O)O	1.7%	i	3.8e-09	5.7%	i

A few values from above:
NC1=NC(=O)CC(C(=O)NCCc2ccccc2)S1 (configuration not stated) in A647 fluor: 1.89e-08
CC1CCCCN1C(=O)CSc1nc2ccsc2c(=O)n1Cc1ccccn1 (configuration not stated) in AID923: -0.8%

From PubChem

Only part of the results is shown; the hit share may differ from the screen's.
